Source: PubChem (National Center for Advancing Translational Sciences (NCATS))
KAT2A inh: GCN5L2 (KAT2A) acetyltransferase inhibition | Q92830 | GCN5L2 HAT assay, ThioGlo1 CoA-SH fluorescence | Potency, µM (series often up to 58.9 µM), for inactives: top-dose activity change, negative = inhibition, most hits filed as inhibitors | 390,000 compounds, 0.21% hits | AID 504327
Target sequence (Q92830 whole entry, looked up): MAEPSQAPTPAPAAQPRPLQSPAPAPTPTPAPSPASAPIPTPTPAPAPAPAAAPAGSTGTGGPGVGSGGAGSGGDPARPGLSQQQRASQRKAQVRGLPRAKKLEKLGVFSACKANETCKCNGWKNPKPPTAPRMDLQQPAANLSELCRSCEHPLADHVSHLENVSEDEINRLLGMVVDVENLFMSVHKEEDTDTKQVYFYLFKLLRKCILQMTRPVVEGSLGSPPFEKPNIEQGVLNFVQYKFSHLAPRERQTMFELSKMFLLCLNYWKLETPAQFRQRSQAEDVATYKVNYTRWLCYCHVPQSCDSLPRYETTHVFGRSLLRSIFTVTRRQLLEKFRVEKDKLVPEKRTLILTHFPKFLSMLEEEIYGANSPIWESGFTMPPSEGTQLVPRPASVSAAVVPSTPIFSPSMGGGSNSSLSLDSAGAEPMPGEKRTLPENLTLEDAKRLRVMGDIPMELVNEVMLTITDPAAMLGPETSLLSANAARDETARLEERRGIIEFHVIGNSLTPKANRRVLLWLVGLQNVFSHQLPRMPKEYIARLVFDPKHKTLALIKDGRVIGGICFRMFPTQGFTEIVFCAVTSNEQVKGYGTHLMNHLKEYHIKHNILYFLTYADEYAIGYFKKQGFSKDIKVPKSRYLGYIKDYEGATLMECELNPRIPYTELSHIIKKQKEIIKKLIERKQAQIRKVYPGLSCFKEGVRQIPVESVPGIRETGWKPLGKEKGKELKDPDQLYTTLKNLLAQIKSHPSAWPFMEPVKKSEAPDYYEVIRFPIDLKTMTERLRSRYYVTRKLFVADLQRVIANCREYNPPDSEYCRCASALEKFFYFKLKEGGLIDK
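Compounds, pin-transferred from DMSO stocks, meet 20nM GCN5L2 for 15 min before the reaction begins with H3(1-25) peptide (75uM) and acetyl-CoA (70uM). Thiol-reactive ThioGlo1 reports CoA release over 20 min at room temperature.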
N370S GC mod: N370S glucocerebrosidase modulation, Gaucher chaperone candidate; P04062; N370S GC spleen homogenate, 4MU-glucoside fluorescence; Potency, µM (series often up to 59.4 µM), for the others: at the highest dose activity change, negative = inhibition, actives largely listed as inhibitors; 330,000 compounds, 0.092% hits;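 also: 0% = full enzyme activity and -100% = no enzyme basal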
Active calls of the source: *; . = not tested or not shown; & = joins results of further samples; [ ] = remark or other dose. Calls follow the shape of the dose curve; as a rule, active = well fitted curve in the direction sought with a large enough effect; inconclusive = small, poorly fitted or top-dose-only effect, or another doubt; inactive = no such curve, though single readings can be large; an effect the other way counts as inactive or inconclusive. Unless noted, % is scaled to controls: 0 for no effect and ±100 for the full control effect; potency is read from the fitted curve at half-maximal effect. This is a subset; most or all hits stand in other tables.

structure	KAT2A inh	N370S GC mod
Cc1onc(-c2ccccc2)c1-c1nnc(-c2ccccc2C(F)(F)F)o1	-18%	10%
C/C(=N\OCC(=O)Nc1cc(C)cc(C)c1)c1ccc2c(c1)OCCO2	-7%	11%
O=c1c2c(-c3cccs3)csc2[nH]c(=S)n1-c1ccccc1	19%	4%
Cn1c(=O)c2c(ncn2CCOc2cccc(Br)c2)n(C)c1=O	-3%	-9%
CCOC(=O)C1=C(N)OC2=C(C(=O)CC(C)(C)C2)C1c1cc(CSc2nnnn2C)cs1 (stereo not drawn)	-9%	20%
Cc1cccc(-c2nnn(C/C(N)=N/O)n2)c1	-5%	-6%
O=C(CP(=O)(c1ccccc1)c1ccccc1)N1CCCCC1	-3%	4%
C=CCn1c(SCC(=O)NCC2CCCO2)nc2sc(CC)cc2c1=O (stereo not drawn)	-3%	.
CCSc1nc2c(c(=O)[nH]1)C(c1ccncc1)C(C(=O)OC)=C(C)N2 (stereo not drawn)	2%	-3%
CC1(C)OC(c2ccccc2)=C/C(=C/C=N/NC(=O)c2ccncc2)O1	-2%	8%
Cc1ccc2nc(N3CCC(C(=O)O)CC3)nc(-c3ccccc3)c2c1	-3%	3%
CCN(CC)CCNC(=O)CNC(=S)N(CCCN1CCOCC1)Cc1cccs1	0%	6%
COc1ccc(CNC(=O)c2ccc(CN3C(=O)C(C)=C(c4ccc(C)cc4)S3(=O)=O)cc2)cc1	-8%	.
COc1ccccc1N1CCN(C(=O)c2cc(C)on2)CC1	2%	-4%
Cc1cc(NC(=O)c2ccccc2)ccc1NC(=O)c1ccccc1Cl	3%	7%
O=C(O)c1ccc(S(=O)(=O)N(Cc2ccccc2)C2CCCCC2)cc1	1%	-3%
COc1ccc(NC(=S)N2CCC(NC(=O)c3cccc(C)c3)CC2)cc1	-1%	-6%
CCOC(=O)CC(NC(=O)c1cc2c(=O)n3cccc(C)c3nc2s1)c1ccc(OCC(C)C)c(OC)c1 (stereo not drawn)	-10%	.
CCOc1ccccc1NC(=O)c1ccc2c(c1)C(=O)N(CC)C2=O	-1%	4%
O=C(c1cc(C2CC2)nn1-c1ccccc1)N1CCN(Cc2ccccc2F)CC1	-5%	0%
CCOc1ccc(OCC(=O)OC(C)C(=O)NC2CCCCC2C)cc1 (stereo not drawn)	1%	.
CCc1nonc1NC(=O)c1oc2c(C)c(C)ccc2c1C	-6%	-13%
CC(C(=O)NC1CCCC1)N(C(=O)c1snc(C(N)=O)c1N)c1ccc2c(c1)OCCO2 (stereo not drawn)	-6%	-6%
Cc1ccc(NC(=O)C2CCCN2C(=O)NC2CCCCC2)cc1C (stereo not drawn)	-5%	0%
Cc1ccc(CC(=O)Nc2ccc(C(=O)N3CCCCC3)cc2)cc1	-6%	5%
COc1ccc(CNC(=O)Nc2cccc(C)c2)cc1	1%	-15%
CC(=O)NC(CC(=O)Nc1nccs1)c1ccccc1 (stereo not drawn)	0%	2%
COc1ccccc1C(=O)NNC(=O)C(=O)NC(C)C	7%	-11%
COCCCNC(=O)c1ccc2c(c1)OCO2	-1%	1%
COc1cccc(S(=O)(=O)Nc2ccc(C(=O)N3CCCCCC3)cc2)c1	0%	2%

4 of these compounds, set out differently.
KAT2A inh	N370S GC mod	compound
-5%	0%	Cc1ccc(NC(=O)C2CCCN2C(=O)NC2CCCCC2)cc1C (stereo not drawn)
-3%	-9%	Cn1c(=O)c2c(ncn2CCOc2cccc(Br)c2)n(C)c1=O
-8%	.	COc1ccc(CNC(=O)c2ccc(CN3C(=O)C(C)=C(c4ccc(C)cc4)S3(=O)=O)cc2)cc1
0%	2%	COc1cccc(S(=O)(=O)Nc2ccc(C(=O)N3CCCCCC3)cc2)c1

(continued)
structure	KAT2A inh	N370S GC mod
CC(C)N(c1nnc(N)s1)C(C)C	-5%	3%
C=CCn1c(SCc2ccc(C#N)cc2)nnc1-c1cccc(OC)c1	4%	-7%
COc1ccc(C(C)=O)cc1CN1C(=O)C(C)N(c2ccc(C)cc2)C1=O (stereo not drawn)	-5%	-4%
COc1ccc(-c2csc(NC(=O)CN3C(=O)C4CC=CCC4C3=O)n2)cc1 (stereo not drawn)	-5%	.
O=C1CN(C(=O)CCN2CCOCC2)C(c2ccccc2)c2cc(Br)ccc2N1 (stereo not drawn)	-1%	-2%
C/C(=N\NC(=S)NC(C)C)c1ccccc1	0%	-1%
Cc1ccc(/C=C2\Oc3cc(OCC(=O)NN)ccc3C2=O)o1	-4%	-10%
O=C(CN1C(=O)c2cccc3cccc1c23)Nc1ccccc1	-9%	-5%
COCCCn1c(=N)c(C(=O)NC2CCCC2)cc2c(=O)n3cc(C)ccc3nc21	-1%	.
Cn1cnc2cc(OC(=O)c3ccccc3)ccc21	-2%	9%
Cc1cccc(C2c3[nH]c4ccccc4c3CCN2C(=O)c2cc(CC(C)C)nc(C)n2)n1 (stereo not drawn)	-17%	25%
Cc1ccc(/C=C2\SC(=S)N(CCC(=O)Nc3cccnc3)C2=O)cc1	-2%	-7%
CCC(=O)Nc1c(C(=O)N2CCCCCC2)cnn1-c1ccc(C)c(C)c1	1%	-5%
O=C(Nc1nccs1)c1cccc(NC(=O)C(F)(F)F)c1	1%	11%
Cc1ccnc(SCc2cn3c(C)cccc3n2)n1	11%	3%
CCC(CC)c1nn2c(N)c(/C=C3\C(C)=Nc4ccccc43)c(=O)nc2s1	-7%	-3%
COC(=O)/C(C#N)=C/c1c(N2CCN(C)CC2)nc2ccccn2c1=O	-12%	-1%
Cc1ccccc1NC(=O)Cc1nc(COC(=O)CNS(=O)(=O)c2cccc(Br)c2)cs1	-17%	-2%
CC(=O)CCc1oc2ccc(C)cc2c1Cc1ccccc1	-20%	0%
O=C(CN1C(=O)CSC1=O)Nc1ccc(F)c(F)c1F	-3%	-6%
O=S(=O)(Nc1ccc(-c2cn3c(n2)SCC3)cc1)c1cccs1	-8%	-4%
CCN(CC)c1cnn(C/C(=N\OC)c2ccc(Cl)cc2)c(=O)c1Br	-11%	-2%
CCOc1ccc2nc(N3CCC(C(=O)N4CCN(C5CCCCC5)CC4)CC3)sc2c1	0%	6%
O=C(NC(=S)Nc1cccc2cnccc12)c1ccccc1	29%	6%
CCCCN(Cc1ccccc1)C(=O)C1CCCN(S(=O)(=O)c2cnc[nH]2)C1 (stereo not drawn)	-6%	-4%
Cn1c(=O)[nH]c2c(Cl)nccc21	-3%	-4%
CCc1nnc(NS(=O)(=O)c2ccc(N=Cc3c(C)[nH]n(-c4ccc(C)cc4)c3=O)cc2)s1	-19%	0%
Cc1ccc(-c2nc(Cl)nc3ccccc23)cc1	-3%	5%
COC(=O)c1ccc(OCC(O)CN(CC(C)C)CC(C)C)cc1 (stereo not drawn)	-6%	-4%
COc1cccc(N2C(=O)Nc3ccc(Br)cc3C2(O)C(=O)NCCCOC(C)C)c1 (stereo not drawn)	19%	-16%

Quoted from the listing:
COc1cccc(N2C(=O)Nc3ccc(Br)cc3C2(O)C(=O)NCCCOC(C)C)c1 (stereo not drawn) in N370S GC mod = -16%
COc1ccc(-c2csc(NC(=O)CN3C(=O)C4CC=CCC4C3=O)n2)cc1 (stereo not drawn) in KAT2A inh = -5%
Cc1ccc(/C=C2\Oc3cc(OCC(=O)NN)ccc3C2=O)o1 in N370S GC mod = -10%

Next part.
structure	KAT2A inh	N370S GC mod
O=C(COC(=O)[C@@H]1CC(O)CN1S(=O)(=O)c1ccccc1[N+](=O)[O-])Nc1ccc2ccccc2c1 (stereo partly drawn)	-6%	-3%
CC(=O)c1c(C)n(CCO)c2ccc(O)cc12	2%	-2%
COc1cc(C2c3c(-c4cc(Cl)c(C)cc4O)n[nH]c3C(=O)N2Cc2cccnc2)ccc1O (stereo not drawn)	0%	-8%
CCOC(=O)N1CCC(c2cc(=O)n3[nH]cc(C(=O)OC)c3n2)CC1	-26%	4%
O=C(COC(=O)c1cc([N+](=O)[O-])ccc1NCCO)c1ccc(Cl)cc1	-14%	9%
Cc1oc2ccc(O)c(CN3CCOCC3)c2c1C(=O)Nc1cccc(C(F)(F)F)c1	-8%	.
O=C1CCCN1c1ccc(S(=O)(=O)Nc2ccc3c(c2)OCCO3)cc1	-9%	-7%
CCCCCCCC(=O)NN1CCOCC1	-7%	8%
COc1ccc2cnn(-c3ccccc3)c(=O)c2c1OC	0%	0%
COc1ccc(C(=O)CSc2ncnc3nc[nH]c23)cc1	-1%	0%
CSc1nc2nc3c(cc2c(=O)n1-c1ccc(C)cc1)COC(C)(C)C3	-2%	2%
CCc1ccc(NC(=O)c2cnn3ccccc23)cc1	1%	2%
CN1CCc2cccc3c2C1Cc1ccc(O)c(O)c1-3 (stereo not drawn)	-10%&-3%&7%	-3%&-6%&0%
O=c1[nH]c(C(F)(F)F)nc2ccccc12	1%	10%
CCOc1ccc(C(=O)c2cn(Cc3cccc(OC)c3)c3cc4c(cc3c2=O)OCO4)cc1	-5%	.
COc1ccc(N(C(=O)COc2ccccc2OC)S(=O)(=O)c2ccc(C)cc2)cc1	-21%	14%
O=C1NC(=Nc2ccccc2)SC1(CO)CO	-8%	1%
N#C/C(=C(/O)c1cccs1)c1nc2ccccc2[nH]1	2%	6%
CCOC(=O)C1(Cc2cccc(OC)c2)CCN(C/C=C/c2ccccc2)CC1	42%[activator]	1%
CC(C)(C)OC(=O)N1CCC[C@H]1C(=O)N/N=C/c1cccc2cccnc12	-15%	2%
CS(=O)(=O)c1ccc(Cl)c(NC(=O)c2cc(S(=O)(=O)N3CCOCC3)ccc2N2CCCC2)c1	-7%	-2%
CC1=C(C(=O)Nc2cccnc2)C(c2cccc(F)c2)n2nc(SCc3ccccc3F)nc2N1 (stereo not drawn)	-11%	.
O=C(COC(=O)c1cc([N+](=O)[O-])ccc1N1CCOCC1)Nc1c(Cl)cccc1C(F)(F)F	-6%	-10%
CCOc1ccccc1C1C(C(=O)OC)=C(N)OC2=C1C(=O)CCC2 (stereo not drawn)	-6%	7%
COc1cccc(C=Nc2ccc(C)c(F)c2)c1O	2%	10%
Cc1oc(-c2ccc(Cl)cc2)nc1CSCC(=O)NC1CCN(Cc2ccccc2)CC1	-1%	-5%
CCOC(=O)c1c2n(c3ccc(O)cc13)CCCCC2	-1%	12%
CCOC(=O)c1sc2cc([N+](=O)[O-])cc(SCC(=O)OC)c2c1N	-12%	9%
CCCCCn1c(=O)[nH]c2cc(C(=O)Nc3cc(C)cc(C)c3)ccc2c1=O	-6%	.
c1coc(CNCC2OCCc3ccccc32)c1 (stereo not drawn)	-5%	-7%

Structures listed so far containing two or more sulfur atoms (ten):
structure	KAT2A inh	N370S GC mod
O=c1c2c(-c3cccs3)csc2[nH]c(=S)n1-c1ccccc1	19%	4%
CCOC(=O)C1=C(N)OC2=C(C(=O)CC(C)(C)C2)C1c1cc(CSc2nnnn2C)cs1 (stereo not drawn)	-9%	20%
C=CCn1c(SCC(=O)NCC2CCCO2)nc2sc(CC)cc2c1=O (stereo not drawn)	-3%	.
CCN(CC)CCNC(=O)CNC(=S)N(CCCN1CCOCC1)Cc1cccs1	0%	6%
Cc1ccc(/C=C2\SC(=S)N(CCC(=O)Nc3cccnc3)C2=O)cc1	-2%	-7%
Cc1ccccc1NC(=O)Cc1nc(COC(=O)CNS(=O)(=O)c2cccc(Br)c2)cs1	-17%	-2%
O=S(=O)(Nc1ccc(-c2cn3c(n2)SCC3)cc1)c1cccs1	-8%	-4%
CCc1nnc(NS(=O)(=O)c2ccc(N=Cc3c(C)[nH]n(-c4ccc(C)cc4)c3=O)cc2)s1	-19%	0%
CS(=O)(=O)c1ccc(Cl)c(NC(=O)c2cc(S(=O)(=O)N3CCOCC3)ccc2N2CCCC2)c1	-7%	-2%
CCOC(=O)c1sc2cc([N+](=O)[O-])cc(SCC(=O)OC)c2c1N	-12%	9%

New compounds follow.
structure	KAT2A inh	N370S GC mod
Cc1nc(-c2ccc(F)cc2)c(CC(=O)N(C)CC(=O)Nc2ccc(F)cc2)s1	1%	-10%
COc1ccccc1C(=O)NC1CCN(C(=S)NCCc2ccccc2)CC1	0%	-2%
CC1CCN(CCCNC(=O)C2CCCN(c3ncnc4c3nc3n4CCCCC3)C2)CC1 (stereo not drawn)	2%	1%
CN(C(=O)c1ccc2c(Cl)c3c(nc2c1)CCC3)c1ccccc1	-3%	12%
CC1(C)CC2CC(C)(CN2c2ncnc3ccccc23)C1 (stereo not drawn)	-2%	-8%
CSCC[C@H](NC(=O)[C@H]1N2C(=O)c3ccccc3C2SC1(C)C)C(=O)NCc1ccncc1 (stereo partly drawn)	-6%	-5%
CCOc1ccc(-c2nc3ccccc3c(=O)o2)cc1	-2%&-2%	-10%
Cc1ccccc1OCCN(C#N)c1nc(N(C)C)nc(N(C)C)n1	-1%	2%
Cc1nc(C)c(C(=O)NNS(=O)(=O)c2ccc([N+](=O)[O-])cc2)s1	0%	3%
Cc1ccc2c(c1)c1c3n2CCN(C(=O)C2CC2)C3CCC1 (stereo not drawn)	-7%	0%
S=C(NCCCN1CCOCC1)N1CCN(c2cccc(Cl)c2)CC1	-5%	-16%
COCCN(CCOC)c1nc(S(=O)(=O)c2ccc(C)cc2)c(Cl)s1	3%	12%
CCOC(=O)N1CCc2c(sc3c2C(=O)NC(c2ccccc2F)N3)C1 (stereo not drawn)	-3%	.
Cc1cc(C)cc(NC(=O)CCN2CCOCC2)c1	0%	-8%
CCSc1oc(-c2ccco2)nc1S(=O)(=O)c1ccc(C)cc1	-22%	27%
